Assay outcomes: PubChem, National Center for Advancing Translational Sciences (NCATS)
GLA inh pH 4.5: blocks human alpha-galactosidase A at pH 4.5 | P06280 | purified enzyme, 4-MU-alpha-Gal fluorescence, pH 4.5 | activity change, negative = inhibition, % at 105 µM | 230,000 tested, under 10 active | AID 1467; inconclusive = small, poorly fitted or top-dose-only inhibition, or a rising curve; inactive = flat fitted curve, though single readings scatter; no compound was filed as active;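 also: 0% = full activity with enzyme and -100% = basal without enzyme; dose as in the result columns while the protocol names 77 µM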
Rango release inh: inhibitors of RanGTP-induced Rango-importin beta complex dissociation; 0.071% of 340,000 active; Potency, µM (highest dose often 46.1 µM), for the others: at the top dose activity change, negative = inhibition; Biochemical FRET Rango-importin beta, RanGTP-induced dissociation; O95149+P62826; active means falling FRET ratio curve, often poorly fitted, with flat reads before Ran was added; inconclusive means other falling curves, or compound fluorescence or quenching; inactive means flat or rising ratio curve;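 also: potency is read from the fitted curve at half-maximal effect; % of control where 0% means no effect; nearly all actives have a fitted effect of over 45% in size; -100% = wells without RanGTP and RCC1; the record marks most hits as doubtful in a second field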
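FRET read at 45 min, room temperature: inhibitors block the CFP/YFP signal rise when RanGTP (0.6 uM Ran, 2 mM GTP, 0.2 uM RCC1) frees Rango (0.1 uM) from importin beta (0.25 uM). Pre-read after 5 min compound exposure flags interference.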
Rango-impB inh: prevents formation of the Rango-importin beta complex | Q14974 | Rango CFP/YFP FRET sensor + importin beta, 45 min | Potency, µM (highest dose often 92.2 µM), without a hit: top-dose inhibition of complex formation | 0.031% of 340,000 active | AID 540263; active = rising FRET ratio curve, often small or poorly fitted; inconclusive = mostly compound fluorescence or quenching in the first reads; inactive = flat curves in all reads;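 also: potency is read from the fitted curve at half-maximal effect; 0% = DMSO wells and 100% = buffer wells lacking importin beta; nearly all actives have a fitted effect of over 15% in size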
Target sequence (Q14974 whole entry, looked up): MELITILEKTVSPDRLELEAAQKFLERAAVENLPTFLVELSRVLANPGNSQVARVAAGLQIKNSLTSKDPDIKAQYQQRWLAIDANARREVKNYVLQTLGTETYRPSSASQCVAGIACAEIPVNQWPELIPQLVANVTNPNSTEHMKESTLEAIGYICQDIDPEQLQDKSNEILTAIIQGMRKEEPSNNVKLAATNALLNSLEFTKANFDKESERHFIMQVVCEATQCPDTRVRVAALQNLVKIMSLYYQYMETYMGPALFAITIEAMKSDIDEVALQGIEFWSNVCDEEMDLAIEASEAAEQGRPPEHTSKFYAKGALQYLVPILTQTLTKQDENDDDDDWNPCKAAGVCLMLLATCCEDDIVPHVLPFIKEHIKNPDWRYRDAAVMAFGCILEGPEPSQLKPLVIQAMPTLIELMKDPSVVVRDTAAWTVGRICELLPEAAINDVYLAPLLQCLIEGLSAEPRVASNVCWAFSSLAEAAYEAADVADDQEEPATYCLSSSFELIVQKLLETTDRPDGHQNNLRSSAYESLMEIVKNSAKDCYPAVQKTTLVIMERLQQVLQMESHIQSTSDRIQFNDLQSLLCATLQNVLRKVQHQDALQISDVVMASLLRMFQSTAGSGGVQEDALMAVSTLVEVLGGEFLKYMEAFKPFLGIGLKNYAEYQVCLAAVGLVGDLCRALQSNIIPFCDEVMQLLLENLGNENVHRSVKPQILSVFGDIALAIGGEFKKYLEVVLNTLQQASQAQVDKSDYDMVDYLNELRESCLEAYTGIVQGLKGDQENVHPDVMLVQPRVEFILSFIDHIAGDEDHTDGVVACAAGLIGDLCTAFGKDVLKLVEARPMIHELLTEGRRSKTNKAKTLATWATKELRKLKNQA
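FRET biosensor (snurportin 1 IBB flanked by EYFP and cerulean), 50 nM, with compound 5 min, then 0.125 microM importin beta in PBS, 1 mM DTT, 0.02% Tween-20, 0.1% BSA. CFP/YFP ratio read after 45 min at room temperature; pre-read flags interference.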
miR-21 FLuc: miR-21 reporter, rising signal; HeLa miR-21 FLuc reporter, luciferase, 48 h; Potency, µM (series often up to 38.3 µM), for the others: at the top dose reporter change, positive = more light; 340,000 tested, under 10 active; active = well fitted rising curve with a large enough effect; inconclusive = small, poorly fitted or top-dose-only effect; inactive = no such curve, though single readings can be large or run the other way;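 also: % of control where 0% means no effect; miR-21 action dims this reporter so a rising signal means less miR-21 action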
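HeLa miR-21-FLuc reporter line, endogenous miR-21; 2000 cells/well in DMEM/10% FBS; compound titration up to ~40uM final, 48 h, 37 degree Celsius; luciferase detection reagent, 15 min lysis, CCD luminescence.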
* marks the source's active call; other numbers are inactive results; ? = inconclusive; / = no result given; & = joins results of further samples. An excerpt; count on the stated rates, not on these rows.

GLA inh pH 4.5 | Rango release inh | Rango-impB inh | miR-21 FLuc | mol
-1 | ? | ? | -3% | CCC(C)(C)n1nnnc1C(C(C)C)N(Cc1ccco1)Cc1cc2cc3c(cc2[nH]c1=O)OCO3 (stereo not drawn)
1 | ? | -2.6% | -5% | CCCn1c(CCNC(=O)c2cccs2)nc2ccccc21
-8 | -12% | -5.2% | 15%&24% | Cc1ccc(NC(=O)c2cc(S(=O)(=O)NCCC3=CCCCC3)ccc2F)cc1F
-2 | -3% | 3.9% | -5% | O=C(Cn1nnc2c(cnn2-c2ccccc2)c1=O)NCc1cccs1
-6 | 12% | 0.4% | 4% | C=CCn1c(CNC(=O)c2cccs2)nnc1SCC(=O)c1ccc(Br)cc1
-7 | ? | ? | -18% | O=C(/C=C\Nc1ccc(S(=O)(=O)Nc2ncccn2)cc1)c1cccc2ccccc12
-8 | 31% | ? | -36% | Cc1cc(C(=O)CSc2ncccn2)c(C)n1Cc1ccco1
/ | 37% | 6.1% | / | COc1cccc(C(=O)Nc2ccccc2N2CCN(C(=O)c3ccccc3)CC2)c1
-5 | -15% | 0.5% | -36% | Cc1occc1-c1nnc(SCC(=O)Nc2nc(-c3ccccc3)cs2)o1
/ | 16% | -1.1% | / | COc1ccc(C(CNC(=O)c2ccc(NS(=O)(=O)c3ccc(F)c(C)c3)cc2)N(C)C)cc1 (stereo not drawn)
-1 | 2% | 2.2% | / | C=CCN1CCc2c(cc(O)c(O)c2Br)[C@@H](c2ccccc2)C1
3 | -5% | -0.2% | -3% | Cc1ccn(C)c(=N)c1
/ | -7% | -1.0% | / | O=C(OCCc1cc2ccccc2c(=O)o1)c1ccc(C(F)(F)F)cc1
-27 | 25% | 0.8% | -9% | Clc1ccc(CNc2nc(N3CCOCC3)nc(N3CCOCC3)n2)cc1
/ | -2% | -0.4% | / | O=C(COC(=O)/C=C/c1cccc(C(F)(F)F)c1)NC1CCCCCC1
2 | 15% | 5.6% | -2% | Nc1c(C(=O)N/N=C/c2ccc([N+](=O)[O-])cc2)sc2nnc(-c3ccccc3)c(-c3ccccc3)c12
-15 | 0% | 5.7% | 0% | CCN(CC)S(=O)(=O)c1ccc(C)c(NC(=O)COC(=O)c2ccc(C)c(S(=O)(=O)N3CCOCC3)c2)c1
-9 | 4% | -1.3% | 0% | COc1ccc(C(=O)c2c[nH]c(C(=O)NCc3cccnc3)c2)cc1
-2 | 8% | ? | -4% | CCCCNC(=S)Nc1cccc(C(C)=O)c1
/ | -9% | 0.8% | -2% | COc1ccc(S(=O)(=O)NCCc2ccccc2)c2cccnc12
/ | -2% | ? | 24% | O=C(c1ccc(N2CCN(C(=O)c3ccc(F)cc3F)CC2)cc1)c1cccc(F)c1
3 | 2% | -4.3% | -14% | CCOC(=O)C1CCN(c2ncnc3cc(OC)c(OC)cc23)CC1
0 | 11% | -0.9% | -2% | COC(=O)C(C)(C(=O)OC)c1ccc([N+](=O)[O-])cn1
-10 | 0% | ? | -14% | CNS(=O)(=O)c1cccc(C(=O)OCc2cc(C(C)=O)ccc2OC)c1
/ | -14% | -1.9% | / | CCCNc1ncnc2[nH]ncc12

Next entries.
GLA inh pH 4.5 | Rango release inh | Rango-impB inh | miR-21 FLuc | mol
/ | ? | 0.6% | -9% | O=C(Nc1ncc([N+](=O)[O-])s1)C1COc2ccccc2O1 (stereo not drawn)
0 | 10% | 5.2% | -5% | CCCn1c(SCC(=O)Nc2nc(C)c(C(=O)OC)s2)nnc1C(C)C
4 | -7% | -3.7% | -12% | COc1ccc(-c2c3c(=O)n(C)c(=O)n(C)c3cn2-c2cc(OC)ccc2OC)cc1
/ | 5% | -0.8% | / | CC[C@H](C)[C@H]1CNC(=O)C(=O)N1CC1CCN(CCCc2ccc(OC)c(OC)c2)CC1
/ | 20% | 0.5% | / | Cc1cc(C)c(CN2CCN(C(=O)Cn3cnc4c(NCc5ccccc5)ncnc43)CC2)c(C)c1
/ | -11% | 2.5% | 3% | O=C(CSc1n[nH]c(-c2ccccc2)n1)Nc1ccccc1O
-5 | 3% | 1.0% | -12% | COC(=O)Cc1ccc(NC(=S)NCc2ccc(Cl)cc2)cc1
-3 | 1% | 3.7% | 3% | Cc1nc(C(=O)NNC(=O)c2ccccc2)c(C(F)(F)F)o1
1 | 3% | 0.2% | -5% | CCn1c2ccccc2c2cc(/C=N/NC(=O)c3cc(O)cc(O)c3)ccc21
-7 | -10% | 4.2% | -3% | Cc1c(NC(=O)CSc2nnc(Nc3ccccc3)s2)c(=O)n(-c2ccccc2)n1C
-9 | -3% | ? | -66% | COc1ccc2c(c1)CC/C2=N\OC(=O)c1cccc(C)c1
-11 | ? | 1.3% | 19% | Cc1cc(N2CCN(Cc3cn(C)nc3-c3ccccc3F)CC2)cc(C)n1
4 | 3% | 0.3% | 0% | COc1ccccc1NC(=O)CSc1nc(O)cc(=O)[nH]1
-8 | 34% | -1.8% | -1% | COc1ccc(Cc2noc(CN(C)CC3CCN(Cc4ccccc4)CC3)n2)cc1OC
15 | 1% | -1.1% | 0% | COC(=O)[C@H](C)NC(=O)Nc1ccc(S(N)(=O)=O)cc1
5 | 13% | 0.7% | 0% | COc1ccc(OCC(=O)N2CCN(C(=O)c3ccco3)CC2)cc1
-2 | 24% | -5.8% | -79% | CC(C)C1COC(c2cccc3ccccc23)=N1 (stereo not drawn)
10 | 14% | -0.9% | -10% | CSc1nc(N2CCOCC2)c2c(c1C#N)CC(C)(C)OC2
/ | -1% | ? | -9% | COc1ccc(/C=C2/Sc3ccc(C(=O)NCCCN4CCOCC4)cc3NC2=O)cc1OC
-6 | -8% | -1.5% | -24% | Cc1ccc(-c2nc(-c3ccccn3)no2)cc1[N+](=O)[O-]
2 | 20% | 0.5% | -1% | COCCn1c(N)c(N(Cc2ccccc2)C(=O)c2cc3ccccc3o2)c(=O)[nH]c1=O
0 | -20% | 12% | -65% | COc1ccc(-c2nc3c4ccccc4ccn3c2CN2CCOCC2)cc1OC
8 | 22% | -2.4% | -21% | CN1CCN(S(=O)(=O)c2ccc(NC(=O)c3ccco3)cc2)CC1
6 | -2% | -3.5% | -46% | Cc1cc(C)cc(-c2nc(-c3ccncc3)no2)c1
-6 | 4% | -0.4% | -2% | COc1ccccc1N1CCN(CCCNC(=O)Nc2ccccc2)CC1

(further entries)
GLA inh pH 4.5 | Rango release inh | Rango-impB inh | miR-21 FLuc | mol
-2 | -5% | 5.1% | 0% | CCCCN(CC)C(=O)c1ccccc1Oc1ccccc1
-17 | 17% | 0.6% | 5% | Cc1ccccc1C(=O)OC1OC(=O)C(Cl)=C1Nc1ccccc1 (stereo not drawn)
-5 | -5% | -0.1% | -6% | O=C(Nc1ccc(S(=O)(=O)N2CCOCC2)cc1)C1CCCCC1
/ | -15% | 0.5% | -43% | Cc1ccc(C)c(OCc2cc(C(=O)N3CCN(c4ccccc4)CC3)no2)c1
-4 | 7% | -2.0% | 0% | COc1ccc(CNC(=O)c2cccnc2SC)cc1OC
/ | 15% | -1.8% | 2% | COc1ccccc1CNC(=O)Cn1ccc2cc(S(=O)(=O)N3CCCC3)ccc21
4 | -6% | 0.5% | -61% | O=C(NC1=NCCS1)c1sc2cc(F)ccc2c1Cl
7 | 0% | -1.0% | 0% | Cc1cc(-c2csc(NC(=O)c3ccc(=O)[nH]c3)n2)c(C)n1Cc1ccccc1
3 | -16% | -0.6% | -33% | Cn1c(NC(=O)/C=C/c2ccccc2)cc(=O)n(C)c1=O
0 | -4% | -2.3% | -4% | CCC(=O)NC(=S)Nc1ccc(NC(=O)c2ccc(OC)cc2)cc1
-15 | / | / | -4% | NC(=O)C(CC(=O)O)NC(=O)[C@@H]1CCCCNc2c(I)cc([N+](=O)[O-])cc2C(=O)N[C@@H](CO)C(=O)NCC(=O)N1 (stereo partly drawn)
7 | -1% | -3.1% | -8% | Cc1ccc2nc(-c3cccs3)oc(=O)c2c1
7 | 10% | -0.6% | -5% | S=C(NCC1CCCO1)N1CCN(Cc2ccccc2Cl)CC1 (stereo not drawn)
3 | -15% | 2.0% | -3% | Cc1ccc(NC2CC(=O)N(c3cccc([N+](=O)[O-])c3)C2=O)cc1 (stereo not drawn)
/ | -4% | -0.1% | 0% | COc1ccc(N2CCN(C(=S)NCc3ccccc3)CC2)cc1
3 | -1% | -0.3% | -6% | CCCCNC(=O)CC1S/C(=N/N=C/c2ccc(OC)cc2)NC1=O (stereo not drawn)
-6 | 12% | -0.6% | 2% | COc1ccc(-c2csc3nc(-c4cccnc4)nc(N4CCC(C(N)=O)CC4)c23)cc1OC
/ | -16% | 0.7% | 1% | C=CCn1cc(CN2CCC(C(=O)Nc3ccc(Oc4cccnc4)cc3)CC2)c(C)n1
2 | 5% | -5.4% | -5% | CCOC(=O)C(C)Sc1nc(C2CC2)cc(C(F)(F)F)c1C#N (stereo not drawn)
/ | -7% | -2.4% | 12%&10% | COc1ccccc1N1CCN(S(=O)(=O)CCNC(=O)C2CC(=O)N(c3ccccc3)C2)CC1 (stereo not drawn)
-16 | 10% | -0.5% | 1% | CC(=O)C1=C(c2ccccc2)NC(=O)NC1c1ccccc1OCC(=O)NCc1ccccc1 (stereo not drawn)
6 | 4% | 0.5% | -40% | CC1CCN(C(=O)CCNS(=O)(=O)c2ccccc2)CC1
/ | 13% | -3.4% | / | CC(C)N(Cc1ccccc1)C(=O)COC(=O)c1ccc2ncsc2c1
6 | -28% | ? | -7% | CN(C)CCSc1nc(N)c2c3c(sc2n1)CN(C)CC3
/ | 32% | 7.3% | 2% | Cc1ccc(C)c(Cn2c3ccccc3c3cnn(CC(=O)NCCCN4CCOCC4)c(=O)c32)c1

Structural class, the entries above with a Cl atom.
GLA inh pH 4.5 | Rango release inh | Rango-impB inh | miR-21 FLuc | mol
-27 | 25% | 0.8% | -9% | Clc1ccc(CNc2nc(N3CCOCC3)nc(N3CCOCC3)n2)cc1
-5 | 3% | 1.0% | -12% | COC(=O)Cc1ccc(NC(=S)NCc2ccc(Cl)cc2)cc1
-17 | 17% | 0.6% | 5% | Cc1ccccc1C(=O)OC1OC(=O)C(Cl)=C1Nc1ccccc1 (stereo not drawn)
4 | -6% | 0.5% | -61% | O=C(NC1=NCCS1)c1sc2cc(F)ccc2c1Cl
7 | 10% | -0.6% | -5% | S=C(NCC1CCCO1)N1CCN(Cc2ccccc2Cl)CC1 (stereo not drawn)

Next part.
GLA inh pH 4.5 | Rango release inh | Rango-impB inh | miR-21 FLuc | mol
-3 | -1% | -1.8% | -6% | CC1CN(C)C(C)C/C1=N/Oc1ccccc1[N+](=O)[O-] (stereo not drawn)
3 | -22% | ? | 7% | COc1nc(N)c(C#N)c(-c2ccc(N(C)CCC#N)cc2)c1C#N
1 | 0% | -4.4% | -3% | O=C(CSc1nnc(-c2cccc(S(=O)(=O)N3CCOCC3)c2)n1C1CCCCCC1)NCc1ccccc1
-16 | -12% | -0.7% | -10% | CCOC(=O)C1=C(c2ccccc2)Nc2c(c(=O)n(C)c(=O)n2C)C1c1ccc(O)c(OC)c1 (stereo not drawn)
/ | 17% | -0.7% | / | COc1cc(OC)cc(-c2c(-c3cccs3)c3cc(-c4ccc(SC)cc4)ccc3n2C)c1
5 | 12% | -1.3% | -1% | Cc1ccc(N2C(N)=NC(N)=NC2(C)C)c(C)c1
/ | -12% | 2.6% | 1% | COC1=CC2(O)CCCC2=CC1=O (stereo not drawn)
-5 | -20% | 1.0% | 0% | O=C(c1ccccn1)C1CCCN(Cc2nc(Cc3cccc(F)c3)no2)C1 (stereo not drawn)
-3 | 15% | -0.5% | -7% | OCC1(CCOc2ccccc2)CCN(C2Cc3ccccc3C2)CC1
-2 | ? | ? | 0% | Oc1ccccc1N1CCN(c2nc(-c3cccs3)nc3ccccc23)CC1
6 | 1% | 0.7% | -1% | CCOC(=O)CCC(=O)Nc1cccc([N+](=O)[O-])c1
/ | 6% | 1.4% | / | CC1(C(=O)OCC(=O)Nc2ccc(Cl)cn2)CC1(Cl)Cl (stereo not drawn)
2 | -8% | 2.0% | -37% | CCOC(=O)c1c(NC(=O)COC(=O)Cn2cnc3ccccc32)sc(C)c1C
